Vaccinia stage: blocks a specific stage of Vaccinia orthopoxvirus infection, primary screen, cell-based, single point. Vaccinia-infected cells, mCherry/Venus stage reporter fluorescence; active compounds read low; some inactives read as strong as hits. activity change (mCherry), % (no concentration beside the values). 0.01% of 89,000 active;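 active = mCherry past -33% and 40 or more points under the early reporter, replicates agreeing; inconclusive = past -33% without that gap or agreement; tested in A549 cells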;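 note: scaled between vehicle wells and reference inhibitor wells; 23 nL library stock went into each well; one replicate is shown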
Vaccinia stage Venus: second read-out of Vaccinia stage, no call of its own (marks repeat the call); activity change (Venus), %; measured here: Venus reporter, other viral stage;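 negative = less Venus signal; first of two replicates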
The depositor's hits bear a star; ? = inconclusive; nt = no result given. These rows are one share of the data; the hit share may differ from the screen's.

structure	Vaccinia stage	Vaccinia stage Venus
C[C@H]1CN([C@@H](C)CO)C(=O)c2cc(C#Cc3ccccc3)cnc2O[C@@H]1CN(C)C(=O)C1CC1	0.2	-1.8
C[C@H]1CN([C@@H](C)CO)C(=O)c2cc(NC(=O)Cc3cn(C)c4ccccc34)ccc2O[C@@H]1CN(C)Cc1ccccc1	14.0	14.0
C[C@H](CO)N1C[C@H](C)[C@H](CN(C)S(C)(=O)=O)Oc2ccc(NC(=O)Nc3ccc(C(F)(F)F)cc3)cc2C1=O	14.3	10.9
COc1ccc(C(=O)Nc2ccc3c(c2)C(=O)N(C)C[C@H](OC)[C@@H](C)CN[C@H](C)CO3)cc1	-7.2	3.2
CN(C)c1ccc2c(c1)[C@@H]1C[C@H](CC(=O)NCCN3CCCCC3)O[C@H](CO)[C@@H]1O2	4.4	8.9
COc1ccc(C#Cc2cnc3c(c2)C(=O)N([C@@H](C)CO)C[C@@H](C)[C@@H](CN(C)CC2CCOCC2)O3)cc1	-25.0	-10.1
CC(C)NC(=O)Nc1ccc2c(c1)C(=O)N([C@H](C)CO)C[C@H](C)[C@@H](CN(C)S(=O)(=O)c1ccccc1)O2	20.5	9.7
O=C(C[C@@H]1CC[C@H]2[C@@H](COC[C@@H](O)CN2C(=O)Nc2ccc(Cl)c(Cl)c2)O1)NCc1ccc(F)cc1	-15.4	-7.6
CCS(=O)(=O)N1CCCCN2[C@H](C1)[C@@H](c1ccc(-c3ccc(C#N)cc3)cc1)[C@@H]2CO	19.2	17.4
C[C@@H]1CCCCO[C@@H](CN(C)C(=O)NC2CCCCC2)[C@H](C)CN([C@@H](C)CO)C(=O)c2cc(NC(=O)C3CCCCC3)ccc2O1	-13.1	-12.7
CCS(=O)(=O)Nc1ccc2c(c1)C(=O)N(C)[C@H]1CC[C@H](CC(=O)Nc3ccccc3)O[C@@H]1CO2	7.6	-3.3
COCC(=O)N1[C@H](CO)[C@@H]2c3ccccc3N(C(=O)C3CC3)C[C@@H]21	-3.2	5.2
Cc1noc(C)c1S(=O)(=O)N(C)C[C@@H]1OCCCC[C@@H](C)Oc2ccc(NS(=O)(=O)c3ccc(Cl)cc3)cc2C(=O)N([C@@H](C)CO)C[C@H]1C	?	nt
COc1cc(CN2CC3(CN(C(=O)CN4CCOCC4)C3)c3c(n(C)c4cc(OC)ccc34)[C@H]2CO)cc(OC)c1	17.4	1.8
Cc1ccc(S(=O)(=O)N(C)C[C@@H]2OCCCC[C@H](C)Oc3ccc(NC(=O)NC(C)C)cc3C(=O)N([C@H](C)CO)C[C@H]2C)cc1	-5.8	-6.6
CO[C@H]1CN(C)C(=O)c2cc(NC(=O)c3cnccn3)ccc2OC[C@@H](C)N(C)C[C@H]1C	5.8	12.6
C[C@@H]1CN([C@H](C)CO)C(=O)c2cc(NC(=O)NC3CCCCC3)ccc2O[C@H]1CN(C)CC1CCCCC1	-18.2	-11.6
COc1ccc(S(=O)(=O)N(C)C[C@@H]2Oc3ccc(NC(=O)Nc4ccc5c(c4)OCO5)cc3CC(=O)N([C@@H](C)CO)C[C@H]2C)cc1	10.2	16.4
C/C=C/c1ccc2c(c1)O[C@H](CN(C)C(=O)Cc1cccnc1)[C@H](C)CN([C@H](C)CO)S2(=O)=O	14.1	-2.0
C[C@H](CO)N1C[C@H](C)[C@@H](CN(C)Cc2ccc(C(=O)O)cc2)Oc2ccc(NS(=O)(=O)c3cccs3)cc2CC1=O	13.8	7.3
Cc1noc(C)c1S(=O)(=O)N(C)C[C@@H]1OCCCC[C@@H](C)Oc2ccc(NS(=O)(=O)c3cn(C)cn3)cc2C(=O)N([C@@H](C)CO)C[C@H]1C	17.9	-2.4
COc1ccc2c3c(n(C)c2c1)[C@@H](CO)N(C(=O)NC(C)C)CC31CN(CC2CC2)C1	1.4	-1.5
CC=Cc1ccc2n(c1=O)C[C@@H]1[C@@H](CO)[C@H](C(=O)N[C@H](C)c3ccccc3)N(C(=O)c3cnccn3)[C@H]21 (mixture of isomers)	-1.2	-2.3
C[C@H]1CN([C@@H](C)CO)C(=O)Cc2cc(NC(=O)Cc3ccccc3)ccc2O[C@H]1CN(C)Cc1ccc(C(=O)Nc2ccccc2N)cc1	-13.5	-16.7
COc1ccc(S(=O)(=O)N(C)C[C@H]2OCc3ccccc3-c3ccccc3C(=O)N([C@H](C)CO)C[C@@H]2C)cc1	1.0	1.3
Cc1ccccc1-c1cnc2c(c1)C(=O)N([C@H](C)CO)C[C@H](C)[C@H](CN(C)C(=O)CC1CC1)O2	5.7	-3.1
CC=Cc1ccc2n(c1=O)C[C@H]1[C@H](CO)[C@@H](C(=O)NCc3ccc(F)cc3)[C@@H]2N1CCC (mixture of isomers)	-6.6	1.4
O=C(C[C@@H]1CC[C@@H]2[C@H](COC[C@H](O)CN2Cc2cccc(C(F)(F)F)c2)O1)NCc1ccccc1	?	nt
CO[C@H]1CN(C)C(=O)c2ccc(NC(=O)Nc3cccc(F)c3)cc2OC[C@H](C)N(C)C[C@@H]1C	-22.6	-14.2
CCC(=O)NC[C@H]1[C@@H](c2ccc(C3=CCCC3)cc2)[C@@H](CO)N1C(C)=O	7.9	2.4
O=C(C[C@H]1CC[C@@H]2[C@H](COC[C@H](O)CN2Cc2cccc(-c3ccncc3)c2)O1)N1CCCCC1	-18.9	-21.7
C[C@H]1CCCCO[C@H](CN(C)S(=O)(=O)c2ccccc2)[C@@H](C)CN([C@@H](C)CO)C(=O)c2cc(NC(=O)Cc3ccccc3)ccc2O1	?	nt
C[C@@H]1CCCCO[C@@H](CN(C)C(=O)NC2CCCCC2)[C@H](C)CN([C@@H](C)CO)C(=O)c2cc(NS(=O)(=O)c3ccc(F)cc3)ccc2O1	?	nt
O=C(Cc1ccccc1)N1CC(=O)N2[C@H](CO)[C@H](c3ccc(Br)cc3)[C@@H]2C1	10.6	3.3
CC(C)NC(=O)N(C)C[C@@H]1Oc2ccc(NC(=O)NC3CCCCC3)cc2C(=O)N([C@@H](C)CO)C[C@H]1C	10.4	10.0
CCC(=O)N[C@@H]1C=C[C@@H](CC(=O)NCc2ccccc2F)O[C@H]1CO	2.0	7.4
O=C(C[C@@H]1CC[C@H](NS(=O)(=O)c2ccc(F)cc2)[C@@H](CO)O1)N1CCC(Cc2ccccc2)CC1	-20.2	-4.6
C[C@@H]1CCCCO[C@H](CN(C)C(=O)CCC(F)(F)F)[C@@H](C)CN([C@H](C)CO)C(=O)c2cc(NC(=O)C3CCCCC3)ccc2O1	-5.8	-5.2
C[C@H](CO)N1C[C@H](C)[C@@H](CN(C)CC2CC2)Oc2ccc(NC(=O)Nc3ccccc3)cc2CC1=O	-1.7	-4.7
CC=Cc1ccc2n(c1=O)C[C@@H]1[C@@H](CO)[C@H](C(=O)NCC(F)(F)F)N(C(=O)c3cccnc3)[C@H]21 (mixture of isomers)	-1.3	-1.4
CN(C)C(=O)c1ccc(-c2ccccc2[C@H]2[C@H](C#N)N(C(=O)C3CC3)[C@H]2CO)cc1	3.8	11.5
C[C@H](CO)N1C[C@H](C)[C@H](CN(C)S(=O)(=O)c2ccc(Cl)cc2)Oc2ccc(NC(=O)CCC(F)(F)F)cc2C1=O	-21.4	-7.2
CCOC(=O)OC[C@@H]1[C@@H]2NC(=O)N(C)[C@@]1(CO)Oc1ccccc12	17.9	6.5
COc1cccc(-c2ccc3n(c2=O)C[C@@H]2[C@@H](CO)[C@H](C(=O)O)[C@H]3N2C(=O)c2cnccn2)c1	6.3	7.4
COCC(=O)N1CC2(CCN(Cc3ccc(Cl)cc3)CC2)c2c([nH]c3cc(OC)ccc23)[C@@H]1CO	?	nt
Cc1ccc(S(=O)(=O)N(C)C[C@H]2Oc3ccc(NS(=O)(=O)c4c(C)noc4C)cc3CC(=O)N([C@H](C)CO)C[C@@H]2C)cc1	1.6	-2.0
C[C@H](CO)N1C[C@H](C)[C@H](CN(C)C(=O)c2ccccc2)Oc2cc(C3=CCCCC3)ccc2S1(=O)=O	?	nt
CCCN(C)C[C@H]1Oc2cc(C#Cc3ccc(F)cc3)ccc2S(=O)(=O)N([C@H](C)CO)C[C@H]1C	?	nt
C[C@@H]1CN([C@H](C)CO)S(=O)(=O)c2ccc(C#CC(C)(C)O)cc2O[C@@H]1CN(C)Cc1ccccc1	3.6	-10.6
CC(=O)N(C)C[C@H]1Oc2ncc(C#Cc3ccccc3)cc2C(=O)N([C@H](C)CO)C[C@H]1C	17.4	14.8
CCCC#Cc1ccc2c(c1)O[C@@H](CN(C)C(=O)c1ccncc1)[C@H](C)CN([C@@H](C)CO)S2(=O)=O	-4.2	-5.4
Cc1ccc(S(=O)(=O)N(C)C[C@@H]2Oc3ccc(NC(=O)Nc4ccc(C(F)(F)F)cc4)cc3C(=O)N([C@@H](C)CO)C[C@H]2C)cc1	-32.6	-17.1
C[C@H]1CN([C@@H](C)CO)C(=O)c2cc(/C=C/c3ccccc3)cnc2O[C@@H]1CN(C)C(=O)CN1CCOCC1	-1.7	-7.8
C[C@H](CO)N1C[C@H](C)[C@@H](CN(C)Cc2ccc(C(=O)O)cc2)Oc2ccc(NC(=O)c3ccncc3)cc2C1=O	-1.1	-14.3
Cc1ccc(S(=O)(=O)N[C@H]2CC[C@H](CCNC(=O)Cc3ccccn3)O[C@H]2CO)cc1	-5.2	3.2
N#C[C@@H]1[C@@H](c2ccccc2-c2ccccc2F)[C@H](CO)N1C(=O)C1CC1	3.8	4.5

Brought forward from above: 2 compounds, followed by the next part.
Value order – Vaccinia stage, Vaccinia stage Venus
- Cc1ccc(S(=O)(=O)N[C@H]2CC[C@H](CCNC(=O)Cc3ccccn3)O[C@H]2CO)cc1
    -5.2, 3.2
- N#C[C@@H]1[C@@H](c2ccccc2-c2ccccc2F)[C@H](CO)N1C(=O)C1CC1
    3.8, 4.5
- C[C@@H]1CN([C@H](C)CO)C(=O)c2cccc(NS(=O)(=O)c3cn(C)cn3)c2O[C@@H]1CN(C)C(=O)Nc1ccc(F)cc1
    14.1, 12.0
- C[C@H](C(=O)N(C)C[C@H]1OCc2ccccc2-c2ccccc2C(=O)N([C@H](C)CO)C[C@H]1C)c1ccccc1
    8.7, 0.4
- CC(=O)N1[C@H](CO)[C@@H](c2ccccc2)C12CN(S(=O)(=O)c1ccccc1)C2
    4.6, 2.5
- O=C(c1cccc(F)c1)N1C[C@H]2[C@@H](c3ccccc31)[C@@H](CO)N2C(=O)c1ccc(F)cc1
    2.5, 7.2
- CN(C)C(=O)c1cccc(-c2ccc([C@H]3[C@H](CO)N4C(=O)CN(C(=O)C5CCCCC5)C[C@@H]34)cc2)c1
    6.5, 4.8
- CN1c2ccc(-c3cccc(C#N)c3)cc2[C@@H]2[C@@H](CCN2S(=O)(=O)c2ccccc2F)[C@@H]1CO
    -0.3, 1.4
- COc1ccccc1S(=O)(=O)N[C@@H]1CC[C@@H](CCn2cc(C3CCCC3)nn2)O[C@H]1CO
    -3.5, -4.4
- CO[C@@H]1CN(C)C(=O)c2cc(NC(C)=O)ccc2OC[C@@H](C)N(C(=O)Cc2ccccn2)C[C@@H]1C
    9.5, 14.7
- CCC(=O)Nc1ccc2c(c1)C(=O)N(C)[C@H]1CC[C@@H](CC(=O)Nc3cccc(OC)c3)O[C@@H]1CO2
    1.8, 8.2
- COC(=O)C[C@H]1CC[C@@H]2[C@@H](COc3ccc(NC(=O)Nc4cc(C)cc(C)c4)cc3C(=O)N2C)O1
    -16.9, -14.9
- O=C(C[C@H]1C=C[C@H](NC(=O)c2ccncc2)[C@H](CO)O1)NCC1CCCCC1
    2.9, 13.6
- Cc1noc(C)c1NC(=O)N[C@H]1CC[C@@H](CCNC(=O)C2CCCC2)O[C@H]1CO
    -4.9, 2.8
- O=C1O[C@@H](c2ccccc2)[C@@H](c2ccccc2)N2[C@@H](c3ccc(OCCO)cc3)[C@]3(C(=O)Nc4ccccc43)[C@@H](C(=O)N3CCN(c4ncccn4)CC3)[C@H]12
    -0.2, 1.4
- O=C(C[C@H]1CC[C@@H]2[C@H](COC[C@@H](O)CN2C(=O)c2ccccc2)O1)Nc1ccccc1
    6.7, 7.9
- C[C@H]1CN([C@@H](C)CO)C(=O)Cc2cc(NS(C)(=O)=O)ccc2O[C@@H]1CN(C)S(=O)(=O)c1ccc(F)cc1
    0.0, 5.1
- C[C@H]1CN([C@@H](C)CO)C(=O)c2cc(C#CCN(C)C)cnc2O[C@H]1CN(C)Cc1ccncc1
    8.2, 6.8
- CN(C)CC(=O)Nc1ccc2c(c1)[C@H]1C[C@@H](CC(=O)NCCN3CCCCC3)O[C@H](CO)[C@H]1O2
    7.8, 5.0
- COc1ccc(NC(=O)Nc2ccc3c(c2)C(=O)N([C@H](C)CO)C[C@H](C)[C@@H](CN(C)Cc2ccc(C(=O)O)cc2)OCCCC[C@H](C)O3)cc1
    22.2, 5.2
- Cc1ccc(-c2ccc([C@H]3[C@H]4CN(C(=O)c5ccc(F)cc5)CCCCN4[C@H]3CO)cc2)cc1
    ?, nt
- COc1ccc(S(=O)(=O)N(C)C[C@@H]2Oc3cc(C#CC4CC4)ccc3S(=O)(=O)N([C@H](C)CO)C[C@H]2C)cc1
    ?, nt
- CCCC#Cc1cnc2c(c1)C(=O)N([C@@H](C)CO)C[C@@H](C)[C@@H](CN(C)C(=O)CCN1CCCCC1)O2
    -13.7, -19.0
- COc1ccc2c3c(n(C)c2c1)[C@@H](CO)N(C)CC31CN(S(=O)(=O)c2cn(C)cn2)C1
    29.0, 15.0

Part of the list above, with each value named.
C[C@H]1CN([C@@H](C)CO)C(=O)c2cc(NC(=O)Cc3cn(C)c4ccccc34)ccc2O[C@@H]1CN(C)Cc1ccccc1
  Vaccinia stage: 14.0; Vaccinia stage Venus: 14.0

C[C@H](CO)N1C[C@H](C)[C@H](CN(C)S(C)(=O)=O)Oc2ccc(NC(=O)Nc3ccc(C(F)(F)F)cc3)cc2C1=O
  Vaccinia stage: 14.3; Vaccinia stage Venus: 10.9
